# Assay outcomes deposited in PubChem BioAssay by National Center for Advancing Translational Sciences (NCATS).
# 2A StopGo: High Throughput Screening for Foot and Mouth Disease Virus Antivirals. human cells with a luciferase reporter of 2A StopGo recoding; control for the full effect not named in the record. Potency, µM (highest dose often 57.9 µM), inactives show at the top dose signal change, negative = less light. 410,000 tested, 1.2% active; active = well fitted falling curve with a large enough effect; inconclusive = small, poorly fitted or top-dose-only effect; inactive = no such curve, though single readings can be large or run the other way; tested in HEK293T cells; further: on the % scale 0 is the no-effect control and ±100 the full control effect; nearly all actives have a fitted effect of over 45% in size; luciferase light after 4 h
# LASV entry inh: qHTS for Inhibitors of binding or entry into cells for Lassa Virus | Potency, µM (titrated, usually from 37.9 µM), for the others: at the highest dose activity change, negative = inhibition, usual class: inhibitors | 300,000 tested, 1.2% active | Lassa virus pseudotype entry inhibition, cell reporter; control for the full effect not named in the record; active means well fitted inhibition curve with a large enough effect; inconclusive means small, poorly fitted or top-dose-only effect, or effect the other way; inactive means flat fitted curve, though single readings scatter; tested in HEK293 cells; further: on the % scale 0 is the no-effect control and ±100 the full control effect; nearly all actives have a fitted effect of over 50% in size; luciferase read-out
# NS1 function inh: qHTS Assay for Inhibitors of Influenza NS1 Protein Function; 270,000 tested, 0.4% active; Potency, µM (titrated, usually from 46.1 µM), inactives show at the highest dose activity, positive = more growth; S. cerevisiae slowed by influenza A NS1, growth recovery by OD600; active means well fitted rising curve with a large enough effect; inconclusive means small, poorly fitted or top-dose-only effect; inactive means no such curve, though single readings can be large or run the other way; further: nearly all actives have a fitted effect of over 50% in size
#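 Recovery from NS1-induced slow growth read by OD600 in budding yeast switched to galactose assay medium (pH 6.0, -URA) at 1:100 dilution. Compound 23 nl per well; the matching strain lacking NS1 serves as control.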
# RE007 growth inh: qHTS Assay for Inhibitors of the HIV-1 protein Vpr. S. pombe RE007 Vpr strain, BacTiter-Glo ATP luminescence, 24 h; control for the full effect not named in the record. Potency, µM (series often up to 92.2 µM), inactives show at the top dose activity change, negative = less growth. 360,000 tested, 0.21% active. AID 651644, 2012; active = well fitted falling curve with a large enough effect; inconclusive = small, poorly fitted or top-dose-only effect; inactive = no such curve, though single readings can be large or run the other way;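 further: on the % scale 0 is the no-effect control and ±100 the full control effect; nearly all actives have a fitted effect of over 50% in size; the assay follows cell death caused by Vpr and the record does not say whether a fall means rescue or toxicity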
#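 Fission yeast strain RE007, carrying one chromosomally integrated HIV-1 vpr copy, was seeded at OD 0.01 in PMG+AL medium with 23 nL pinned compound. After 24 h at 30 °C and 99% humidity, viability was read by BacTiter-Glo luminescence.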
# Marburg entry inh: qHTS for inhibitors of binding or entry into cells for Marburg Virus. 300,000 tested, 1.8% active. Marburg virus pseudotyped entry inhibition, cell reporter; control for the full effect not named in the record; about a third of the inactives were read at about 46 µM. Potency, µM (series often up to 37.8 µM), inactives show top-dose activity change, negative = inhibition, most hits filed as inhibitors; active = well fitted inhibition curve with a large enough effect; inconclusive = small, poorly fitted or top-dose-only effect, or effect the other way; inactive = flat fitted curve, though single readings scatter; tested in HEK293 cells; about a fifth of its hits are not listed in these tables; further: on the % scale 0 is the no-effect control and ±100 the full control effect; luciferase read-out
# Cruzain Triton: qHTS Assay for Promiscuous and Specific Inhibitors of Cruzain (with detergent); Cruzipain (Trypanosoma cruzi), P25779; purified cruzain, Z-FR-AMC fluorescence, 0.01% Triton; Potency, µM, without a hit: max response, negative = inhibition, actives largely listed as inhibitors; 200,000 tested, 0.43% active;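 further: plate controls were neutral wells for no effect and buffer without enzyme for full effect; nearly all actives have a fitted effect of over 40% in size; top concentration of the series not given in the record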
# Target sequence (P25779 123-467 limits assumed): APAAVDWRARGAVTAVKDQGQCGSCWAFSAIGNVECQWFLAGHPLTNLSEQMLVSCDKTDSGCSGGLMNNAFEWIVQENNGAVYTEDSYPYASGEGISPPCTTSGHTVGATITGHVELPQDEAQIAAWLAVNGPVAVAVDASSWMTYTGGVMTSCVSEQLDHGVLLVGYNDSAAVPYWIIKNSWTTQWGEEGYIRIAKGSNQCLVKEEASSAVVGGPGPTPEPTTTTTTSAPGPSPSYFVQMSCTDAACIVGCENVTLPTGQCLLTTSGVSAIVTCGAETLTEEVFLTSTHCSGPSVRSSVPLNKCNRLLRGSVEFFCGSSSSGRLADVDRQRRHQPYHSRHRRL
#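 Detergent-containing run (0.01% Triton X-100) in acetate buffer pH 5.5 with 5 mM DTT: enzyme at 1.5 nM final, 15 min compound preincubation at room temperature, then 2 uM Z-FR-AMC substrate. Activity taken as 60 s fluorescence increase at 360/450 nm.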
# Cruzain inh noDet: qHTS Assay for Promiscuous and Specific Inhibitors of Cruzain (without detergent); purified cruzain, Z-FR-AMC fluorescence, no detergent; Potency, µM, inactives show max response, negative = inhibition, hits mostly inhibitors; 200,000 tested, 2.3% active; AID 1476, 2009;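 further: plate controls were enzyme without inhibitor for no effect and buffer without enzyme for full effect; nearly all actives have a fitted effect of over 40% in size; top concentration of the series not given in the record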
#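 Detergent-free condition (0.00005% Triton X-100) in acetate buffer pH 5.5 with DTT. 1.5 nM enzyme and compound were pre-mixed 15 min, then 2 uM Z-FR-AMC substrate added; reaction progress from fluorescence change between first and third reads (60 s).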
# SARS PLpro yeast: qHTS of Yeast-based Assay for SARS-CoV PLP; S. cerevisiae expressing SARS-CoV PLpro, growth rescue; control for the full effect not named in the record; 330,000 tested, 0.19% active; Potency, µM (series often up to 32.9 µM), inactives show top-dose activity, positive = growth rescue; active means well fitted rising curve with a large enough effect; inconclusive means small, poorly fitted or top-dose-only effect; inactive means no such curve, though single readings can be large or run the other way; further: 0% is about no effect; nearly all actives have a fitted effect of over 55% in size; growth read by luminescence after 48 h
# * hit, by the source's call; ? = inconclusive; . = not tested or not shown; & = joins results of further samples; [ ] = dose if it differs, or a comment. Unless noted, the call rests on the fitted dose curve; in most records, active means well fitted curve in the direction sought with a large enough effect; inconclusive means small, poorly fitted or top-dose-only effect, or another doubt; inactive means no such curve, though single readings can be large; an effect the other way counts as inactive or inconclusive. Potency means the concentration at half of the fitted maximal effect.
# Below each SMILES: 2A StopGo, LASV entry inh, NS1 function inh, RE007 growth inh, Marburg entry inh, Cruzain Triton, Cruzain inh noDet, SARS PLpro yeast
CCOc1ccc2nc(N3CCC(C(=O)N4CCN(C5CCCCC5)CC4)CC3)sc2c1
 : 6%, 14%, 11%, -4%, 11%, 5.9%, ?, -6%
CN(C)C(CNC(=O)c1cccc(S(=O)(=O)Nc2ccccc2Cl)c1)c1ccccc1 (stereo not given)
 : -23%, 10%, ., -22%, ?, ., ., .
CCC(C)NC(=O)c1ccc2c(c1)N=C(C)c1cc(C)ccc1S2 (stereo not given)
 : -18%, -17%[46.1 µM], ., ., ?, 1.1%, 24%, .
CC(NCc1cc(Br)ccc1OCC(=O)NCc1ccccc1)c1ccccc1 (stereo not given)
 : ?, ., 2%, -8%, ., ., ., 1%
Cc1csc(NC(=O)c2sc3nc(-c4cccs4)ccc3c2N)n1
 : ., ?, -40%, -13%, ?, -14%, -13%, ?
Cc1nc(-c2cn[nH]c2-c2ccc(O)cc2O)cs1
 : 2%, 3%, -12%, -14%, 24%, 2.8%, -9%, 1%
CCOc1cc(/C=C(\CC(=O)O)c2nc3ccccc3s2)ccc1OCC(=O)Nc1cccc(C(F)(F)F)c1
 : 1%, 1%, ., -18%, 11%, ., ., .
COc1cccc(NC(=O)CSc2nc(C)c(Cc3ccccc3)c(=O)[nH]2)c1
 : -6%, 18%[46.1 µM], ., ., -15%[46.1 µM], -5.4%, -9%, .
Cc1cc(C)c(S(=O)(=O)Nc2ccc(O)cc2)c(C)c1
 : 13%, -10%, -7%, 11%, ?, 10%, 12%, 10%
COc1ccc(N2CCN(C(=O)COC(=O)CCOc3ccc(C(C)(C)C)cc3)CC2)cc1
 : -11%, 0%, ., 4%, 0%, ., ., 5%
Cc1ccc(C)c(S(=O)(=O)Nc2ccc(C(=O)NCCCN3CCCC3=O)cc2)c1
 : 9%, -11%, -2%, -1%, -10%, ., ., -1%
CCOc1ccc(N(CC(=O)NCC(C)C)S(C)(=O)=O)cc1
 : -7%, 5%, 4%, -10%, 6%, 2.7%, 8%, 16%
COc1ccc(C(=O)Nc2cccnc2)cc1C(=O)Nc1cccnc1
 : -11%, 19%, 13%, -1%, -2%, 8.5%, -1%, 3%
CCOC(=O)N1CCN(C(=O)/C=C/c2ccc([N+](=O)[O-])cc2)CC1
 : -15%, ., 5%, 11%, ., ., ., 0%
N#C/C(=C\c1c(F)cccc1Cl)C(=O)NC1CC1
 : 1%, -12%[46.1 µM], 6%, -6%, -23%[46.1 µM], ., ., 1%
O=C(CN(Cc1ccc(F)cc1)C(=O)c1ccco1)NCc1ccc(F)cc1
 : -3%, ?, -8%, 19%, 0%[46.1 µM], -2.0%, 6%, -2%
CC(C)N(C(=O)Nc1ccc2nsnc2c1)C(C)C
 : 0%, ., 9%, -8%, ., ., ., 0%
CC(Oc1ccccc1)C(=O)Nc1nnc(S(=O)(=O)N2CCCCC2)s1 (stereo not given)
 : -14%, -8%[46.1 µM], 7%, -4%, -15%[46.1 µM], ., ., -16%
O=C(N/N=C/c1ccc([N+](=O)[O-])o1)c1cn2ccc3ccccc3c2n1
 : -6%, 7%, -3%, 50%, 1%[46.1 µM], ., ., 1%
CN(c1cccc(NC(=O)COc2ccc(Cl)cc2Cl)c1)S(C)(=O)=O
 : -15%, ?, -7%, -13%, ?, -9.0%, ?, 6%
CCOc1ccccc1-c1nnc(SCc2ccc(Cl)cc2)o1
 : -13%, -17%[46.1 µM], ., ., -6%[46.1 µM], 1.7%, 4%, .
Cc1ccccc1C(=O)N1CCN(c2ccc([N+](=O)[O-])c(N3CCOCC3)c2)CC1
 : -21%, -14%, -17%, 13%, -11%, -7.0%, ?, 1%
COc1ccc(N2CCCn3c2nc2c3c(=O)n(Cc3ccc(C)cc3)c(=O)n2C)c(OC)c1
 : -20%, ?, ., -2%, ?, ., ., -1%
COc1ccccc1NC(=O)NC1(C(=O)N2CCN(C)CC2)CCCCC1
 : 16%, -1%[46.1 µM], -8%, -6%, 25%[46.1 µM], ., ., 0%
CCC(C)(C(=O)NC1CCCCC1)N(Cc1ccco1)C(=O)CNC(=O)c1ccccc1 (stereo not given)
 : 11%, -28%, 3%, 6%, -2%, 4.0%, 5%, -2%
COc1ccc(/C=C/C(=O)c2ccc(OC)cc2OC)c(OC)c1
 : 2%, ., -6%, 0%, ., ., ., -4%
O=C(O)c1cc(N/N=C/c2ccncc2)ccc1Cl
 : ?, ?, 2%, 6%, -20%[46.1 µM], ., ., 1%
CCOc1ccc(/C=N/NC(N)=S)cc1
 : 30%[activator], -6%, -24%, 1%, -5%, -18%, -8%, ?
O=c1[nH]c(=O)n(-c2cccc3ccccc23)c(O)c1C=NCCCn1ccnc1
 : -25%, -1%, -2%, -2%, 15%&15%&15%, -1.3%, -8%, 0%
Cc1ccc(NC(=O)C(=S)NCc2ccco2)cc1
 : 49%[activator], 5%, 14%, -13%, 3%, 4.5%, 8%, 3%

# Molecules shown so far that have a Cl atom, in the order listed:
# Below each SMILES: 2A StopGo, LASV entry inh, NS1 function inh, RE007 growth inh, Marburg entry inh, Cruzain Triton, Cruzain inh noDet, SARS PLpro yeast
CN(C)C(CNC(=O)c1cccc(S(=O)(=O)Nc2ccccc2Cl)c1)c1ccccc1 (stereo not given)
 : -23%, 10%, ., -22%, ?, ., ., .
N#C/C(=C\c1c(F)cccc1Cl)C(=O)NC1CC1
 : 1%, -12%[46.1 µM], 6%, -6%, -23%[46.1 µM], ., ., 1%
CN(c1cccc(NC(=O)COc2ccc(Cl)cc2Cl)c1)S(C)(=O)=O
 : -15%, ?, -7%, -13%, ?, -9.0%, ?, 6%
CCOc1ccccc1-c1nnc(SCc2ccc(Cl)cc2)o1
 : -13%, -17%[46.1 µM], ., ., -6%[46.1 µM], 1.7%, 4%, .
O=C(O)c1cc(N/N=C/c2ccncc2)ccc1Cl
 : ?, ?, 2%, 6%, -20%[46.1 µM], ., ., 1%

# Remaining list, next part:
# Below each SMILES: 2A StopGo, LASV entry inh, NS1 function inh, RE007 growth inh, Marburg entry inh, Cruzain Triton, Cruzain inh noDet, SARS PLpro yeast
COc1ccc(C(=O)C2CCCN(C(=O)c3cccnc3SC)C2)c(C)c1 (stereo not given)
 : -18%, -2%[46.1 µM], 1%, 17%, ?, ., ., 0%
O=C(CSc1ccc([N+](=O)[O-])cc1)NCC1CCCCC1
 : -4%, 17%[46.1 µM], ., 12%, 3%[46.1 µM], ., ., -18%
COc1ccccc1CN1C(=O)[C@@H]2C(CCC(N)=O)NC3(C(=O)Nc4c3ccc(Cl)c4C)[C@@H]2C1=O (stereo not given in full)
 : 1%, -17%, -33%, -15%, 6%&6%, 3.4%, ?, -1%
CCn1c(=O)c2c(nc(SCC(=O)N3CCCC(C)C3)n2C)n(C)c1=O (stereo not given)
 : -21%, -9%, 12%, -1%, 7%[46.1 µM], ., ., 2%
OC12CC3C[C@H](C1)C(N1CCOCC1)[C@@H](C3)C2 (stereo not given in full)
 : 4%, ., 20%, 0%, ., ., ., 4%
O=C(Nc1ccc2c(c1)OCCO2)C1CCCN1C(=O)Nc1ccc(F)cc1 (stereo not given)
 : -4%, -5%[46.1 µM], 4%, -5%, -10%[46.1 µM], ., ., 4%
CC(C)(O)C1Cc2cc(/C=C/C(=O)O)c(O)cc2O1 (stereo not given)
 : 23%, 1%[46.1 µM], 1%, ?, ?, ., ., -1%
O=C(CCS(=O)(=O)c1cccc2nsnc12)NCc1ccccc1Cl
 : -6%, 4%, -1%, 30%, ?, -14%, 12%, -1%
CC(C)(C)c1cc(NC(=O)COc2ccc(Br)cc2)n(-c2ccccc2)n1
 : ?, 15%, 0%, 5%, -14%, -5.2%, 9%, -1%
Cc1ccc(NC(=O)C(NS(=O)(=O)c2ccc3c(c2)CCC(=O)N3)c2ccccc2)cc1C (stereo not given)
 : 44%[activator], -14%[46.1 µM], ., ., -2%[46.1 µM], -0.9%, -5%, .
CCN(Cc1cnn(C)c1)Cc1nc(C2(c3ccc(C)cc3)CCCC2)no1
 : -28%, ?, -43%, -7%, ?, ., ., -5%
CN(C)CCNC(=O)/C=N/O
 : -22%, ., 1%, 8%, ., -0.5%, 14%, 11%
CCCCOC(=O)C1=C(C)NC(=O)NC1c1ccc(N(C)C)cc1 (stereo not given)
 : -15%, ., -2%, -5%, ., ., ., 3%
Clc1ccc(-c2cc(CSc3cccc(Cl)c3)on2)cc1
 : 24%, 6%, -5%, -10%, 6%, 0.7%, -27%, 1%
COC(=O)c1nc2nc(C)cc(C(F)(F)F)n2n1
 : 9%, 6%, 8%, 29%, 0%, 1.7%, 3%, 1%
Cc1cc(C(=O)NNC(=O)C2CCCC2)c(C)o1
 : 21%, 4%, ., -13%, 12%[46.1 µM], ., ., -1%
O=C(CSc1nnc(-c2ccccc2)c(-c2ccccc2)n1)NC1CCS(=O)(=O)C1 (stereo not given)
 : -19%, -1%, -9%, -2%, -7%[46.1 µM], ., ., -2%
COc1cc2ncnc(NCCc3ccccc3)c2cc1OC
 : 20µM*, ., 3%, -10%, ., ., ., 1%
Cc1nnc(NN2CCOCC2)[nH]c1=O
 : -12%, 18%[46.1 µM], ., 9%, 7%[46.1 µM], ., ., -2%
CCOCCn1c(=NC(=O)CSCC(=O)Nc2cc(C)on2)sc2cc(OC)ccc21
 : -23%, ., -16%, 6%, ., ., ., 18%
Cc1cc2ccccc2c(=O)n1CC(=O)N(C)c1ccc(F)cc1
 : 1%, -2%, -2%, 39%, -15%, -2.2%, 0%, -6%
O=C(CN1C(=O)c2ccccc2S1(=O)=O)c1ccc(F)c(F)c1
 : ?, ?, 4%, -13%, 10µM*, ., ., 6%
CCOC(=O)c1cccc(NC(=O)C(C)n2c(C)c3cnn(-c4ccccc4)c(=O)c3c2C)c1 (stereo not given)
 : 0%, ?, ., ., 3%[46.1 µM], -3.3%, ?, .
